Bioassay records: PubChem, Vanderbilt University
GIRK2 act: activators of human GIRK2 potassium channels. 63,000 compounds, 0.05% hits. calls only for hits at 25 µM. P48051. HEK293-GIRK2 thallium flux, Thallos fluorescence;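 active = among the strongest 0.2% of first-round signals and kept after retests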;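 also: first round at about 10 µM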
Target sequence (P48051 whole entry, looked up): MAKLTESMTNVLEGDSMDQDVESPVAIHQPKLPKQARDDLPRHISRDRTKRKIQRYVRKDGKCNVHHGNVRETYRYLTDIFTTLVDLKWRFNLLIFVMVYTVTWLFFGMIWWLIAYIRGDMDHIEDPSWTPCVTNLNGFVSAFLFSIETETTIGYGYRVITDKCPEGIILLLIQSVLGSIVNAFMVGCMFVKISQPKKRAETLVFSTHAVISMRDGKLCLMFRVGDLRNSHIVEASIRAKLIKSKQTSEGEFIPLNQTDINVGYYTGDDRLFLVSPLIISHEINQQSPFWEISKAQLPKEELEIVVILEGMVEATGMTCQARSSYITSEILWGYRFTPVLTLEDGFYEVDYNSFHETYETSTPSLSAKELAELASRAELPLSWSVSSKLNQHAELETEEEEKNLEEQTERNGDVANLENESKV
Calls only; i = inactive; + = active, no number. Only part of the results is shown, so the mix of outcomes need not match the whole.

Sample of the layout (5 entries):
GIRK2 act	compound
i	O=C(CSC1=NNC2C3CC(c4ccccc4)NN3C=CN12)N1CCCCC1 (centres undefined)
i	COc1cc(/C=C/C(=O)CC(=O)/C=C/c2ccc(O)c(OC)c2)ccc1O
i	COc1ccc2nc(SCC3CC3(Cl)Cl)[nH]c2c1 (centres undefined)
i	COC(=O)c1ccc2c(=O)n(CCCC(=O)NCc3ccc4c(c3)OCO4)c(=S)[nH]c2c1
i	O=C(NC1CC(O)C(CO)C1)c1ccsc1 (centres undefined)

This part in full, from the first entry:
GIRK2 act	compound
i	O=C(CSC1=NNC2C3CC(c4ccccc4)NN3C=CN12)N1CCCCC1 (centres undefined)
i	COc1cc(/C=C/C(=O)CC(=O)/C=C/c2ccc(O)c(OC)c2)ccc1O
i	COc1ccc2nc(SCC3CC3(Cl)Cl)[nH]c2c1 (centres undefined)
i	COC(=O)c1ccc2c(=O)n(CCCC(=O)NCc3ccc4c(c3)OCO4)c(=S)[nH]c2c1
i	O=C(NC1CC(O)C(CO)C1)c1ccsc1 (centres undefined)
i	CCN1CCCc2cc(CCNC(=O)C(=O)Nc3ccccc3)ccc21
i	COc1ccccc1-c1nnc(NC(=O)c2ccccc2)o1
i	COc1ncccc1C(=O)NCCn1nc(C2CC2)n(-c2ccccc2)c1=O
i	C=CCn1c(=O)c2c(nc3n2CC(C)CN3c2cccc(OC)c2)n(C)c1=O (centres undefined)
i	COc1ccc(OC)c(-c2nnc(NC(=O)NC3CCCC3)o2)c1
i	COc1ccc(-c2csc3c(=O)n(CC(=O)Nc4cccc(Cl)c4C)cnc23)cc1
i	COc1ccccc1CNC(=O)Cn1c(C)cc(C)c(C#N)c1=O
i	O=C(NCc1ccc(F)cc1)N1CCC2(CC1)OCCCO2
i	COc1ccc2c(c1)C(=O)CC(c1ccc(C)cc1)O2 (centres undefined)
i	O=C(CN1CCC(c2nc(-c3cccc(F)c3)no2)CC1)Nc1ccc(F)c(Cl)c1
i	CCOC(=O)N1CCN(C2CC(=O)N(c3ccc(O)cc3)C2=O)CC1 (centres undefined)
i	Cc1nnc(NC(=O)CCc2csc(NC(=O)c3cccs3)n2)s1
i	C=C[C@H]1C(O[C@@H]2O[C@H](CO)[C@@H](O)[C@H](O)[C@H]2O)OC=C2C(=O)N3CCc4c([nH]c5ccccc45)[C@H]3C[C@H]21 (some centres undefined)
i	Cc1nc(-c2ccc(N3CCN(C(=O)c4sc(-n5cccc5)nc4C)CC3)nc2)no1
i	O=C(c1ccco1)N1CCCC(c2nnc(-c3cccs3)o2)C1 (centres undefined)

In the list so far, these have a thiophene ring, fused or not.
GIRK2 act	compound
i	O=C(NC1CC(O)C(CO)C1)c1ccsc1 (centres undefined)
i	COc1ccc(-c2csc3c(=O)n(CC(=O)Nc4cccc(Cl)c4C)cnc23)cc1
i	Cc1nnc(NC(=O)CCc2csc(NC(=O)c3cccs3)n2)s1
i	O=C(c1ccco1)N1CCCC(c2nnc(-c3cccs3)o2)C1 (centres undefined)

Further records follow:
GIRK2 act	compound
i	Cc1noc(-c2ccc(N3CCCC(C(=O)N4CCc5ccccc54)C3)nc2)n1 (centres undefined)
i	Cc1noc(CNC(=O)CN(C)c2nc3ccccc3s2)n1
i	Cc1ccc(NC(=O)CSc2cc(-n3nc(C)cc3C)ncn2)c(Cl)c1
i	COc1ccc(CCC(=O)Nc2ccc(-c3cnc4n3CCC4)cc2)cc1
i	Cc1noc(C)c1CN1CCN(C(=O)c2c[nH]c3ccccc23)CC1
i	Cc1noc(-c2cccnc2N2CCC(NC(=O)c3ccc(Cl)s3)C2)n1 (centres undefined)
i	COc1ccc(-c2csc(CN3CCN(C(=O)c4ccccc4F)CC3)n2)cc1
i	COC(=O)c1ccc(C(=O)NCCC(O)c2cccc3ccccc23)cc1 (centres undefined)
i	O=C(c1cc(=O)c(OCc2ccccc2)co1)N1CCCCCC1
i	CCc1ccccc1NC(=O)C(=O)NCCc1ccc(Cl)cc1
i	O=C(NCc1cc(-c2ccncc2)n(C2CCCC2)n1)c1ccc(Cl)s1
i	CCCn1c(=O)c2ccc(C(=O)NC3CCCC3)cc2n2c(=O)n(Cc3c(F)cccc3Cl)nc12
i	Cc1cc2c(SCC(=O)Nc3ccccc3O)ncnc2s1
i	COc1ccc(C(=O)NCCCS(=O)(=O)N2CCN(c3ncccn3)CC2)cc1OC
i	CN(C)c1ccc(C(=O)N2CCC(COCc3ccccc3)CC2)cc1
i	CN(C)C(CNC(=O)NCCOc1ccccc1)c1ccco1 (centres undefined)
i	O=C(Cn1nc(-c2cccs2)c2sc(N3CCOCC3)nc2c1=O)N1CCCc2ccccc21
i	CC(C)(C)CC(=O)N1CCN(Cc2nnnn2-c2ccccc2)CC1
i	CCc1ccccc1NC(=O)CSc1nc2c(sc3ncccc32)c(=O)n1Cc1ccccc1
i	COc1ccccc1N1CCN(c2nnc(SCC(=O)Nc3nc4ccccc4s3)s2)CC1

Looked up by structure from above, 2 records:
GIRK2 act	compound
i	Cc1nnc(NC(=O)CCc2csc(NC(=O)c3cccs3)n2)s1
i	Cc1noc(-c2ccc(N3CCCC(C(=O)N4CCc5ccccc54)C3)nc2)n1 (centres undefined)

Next entries
GIRK2 act	compound
i	COc1ccc(C2(C)NC(=O)N(CC(=O)NCc3ccc(F)cc3)C2=O)cc1 (centres undefined)
i	COc1ccc(CCN(C)S(=O)(=O)c2ccc(F)c(F)c2)cc1OC
i	CCOc1ccccc1NS(=O)(=O)c1c(C(=O)OC)sc2cccc(F)c12
i	O=S(=O)(NCC(O)c1ccc2c(c1)CCO2)c1ccc(F)c(Cl)c1 (centres undefined)
i	O=C(Nc1sc2c(c1-c1nc3ccccc3s1)CCCC2)c1cccc2ccccc12
i	COCCN1CCC(NC(=O)c2ccc(F)c(F)c2)CC1
i	COc1cccc(C(=O)Nc2ccc3c(c2)CCC(=O)N3Cc2ccccc2)c1OC
i	O=C(CCSc1nnnn1Cc1ccccc1)Nc1ccccc1F
i	COc1cc(OC)cc(C(=O)NCC2(O)CCc3ccccc3C2)c1 (centres undefined)
i	CCOc1ccc(C2NC(=O)NC(C)=C2C(=O)Nc2ccc(Br)cc2)cc1OC (centres undefined)
i	OCc1cnc(SCc2ccc(F)cc2)n1Cc1ccc(F)cc1
i	COc1ccccc1C(=O)NC1CCN(C(=O)c2cn(-c3ccc(F)c(C)c3)nn2)CC1
i	O=C(Cn1nc2c(c1NC(=O)c1c(F)cccc1Cl)CSC2)NCc1ccco1
i	O=C(NCc1cccs1)Nc1nc2c(Br)cccc2s1
i	Cc1ccc(-c2cnc(SCC(N)=O)n2-c2ccc(C)cc2)cc1
i	O=C(Nc1ccc(-n2cnnn2)cc1)c1ccc(Cn2ccnc2)cc1
i	COc1ccc(CNC(=O)CCC2=NNC3C4CC(c5ccc(C)c(C)c5)NN4C=CN23)c(OC)c1 (centres undefined)
i	O=C(CN1CCC(c2nnc(-c3ccco3)s2)CC1)c1ccc(Cl)cc1
i	O=C(CCC1NC(=O)c2ccccc2NC1=O)NCc1ccccn1 (centres undefined)
i	Cc1ccc(C(=O)N2CCN(c3ncnc4c3nnn4-c3ccccc3)CC2)cc1C
i	O=C(Nc1ccc(OC(F)(F)F)cc1)c1coc(NC(=O)c2cnccn2)n1
i	Cc1cc(C(=O)N2CCN(Cc3nnnn3-c3ccc(Cl)cc3)CC2)no1
i	COc1ccc(C(C)NC(=O)CSc2ccc(-n3cnc(C)c3)nn2)cc1 (centres undefined)
i	CC(NC(=O)C(=O)NCc1ccc(C(O)c2cccs2)s1)c1ccccc1 (centres undefined)
i	COC(=O)c1ccc(NC(=O)Cn2nc3c(Oc4ccccc4)nccn3c2=O)cc1
i	Cc1ccc(-n2nnc(-c3nc(-c4ccccc4)cs3)c2N)cc1F
i	Cc1csc(SCC2CCN(C(=O)COc3ccccc3F)CC2)n1
i	O=C(Cn1cnc(-c2ccccc2)cc1=O)c1ccccc1
i	O=C(c1cccc(-n2cnnn2)c1)N1CC(c2nc(-c3ccccn3)no2)C1
i	COc1ccc(NC(=O)CSc2ncc(-c3ccc(Br)cc3)o2)cc1OC
i	CCCCOc1ccccc1-c1cc(-c2nc(-c3ccncc3)no2)[nH]n1
i	Cc1ccccc1NC(=O)N1CCN(c2nc(N3CCOCC3)nc(-n3ccnc3)n2)CC1
i	CCOC(=O)CNC(=O)CN1CCc2nc(NC(=O)c3ccco3)sc2C1
i	Cc1ccc(S(=O)(=O)N2CCC(C(N)=S)CC2)cc1
i	O=c1ccn(-c2ccccc2)nc1-c1nc(-c2cccc(F)c2)no1
i	Cn1nc(C2CCCN(S(=O)(=O)c3ccc(Cl)s3)C2)n(-c2ccccc2)c1=O (centres undefined)
i	CC(C)(C)c1ccc(S(=O)(=O)NCC(=O)N2CCN(Cc3ccccc3)CC2)cc1
i	COc1ccccc1NC(=O)C(=O)NCCC(O)C1CC1 (centres undefined)
i	CC(C)NC(=O)N1CCC(COCc2ccccc2)CC1
i	Nc1ccc2c(c1)N(S(=O)(=O)c1ccccc1)CCC2
i	COc1ccc(S(=O)(=O)CC(=O)N(Cc2cccnc2)c2nc3cc(C)c(C)cc3s2)cc1
i	CCCS(=O)(=O)NCCNC(=O)c1ccc(NC(=O)C(C)(C)C)cc1
i	NS(=O)(=O)c1ccc(CCNC(=O)C(=O)NC2CCCCCC2)cc1
i	COCC(=O)N1CCCc2ccc(NC(=O)c3cccn(C)c3=O)cc21
i	Cc1noc(C)c1S(=O)(=O)Nc1ccc(Nc2cc(-n3cccn3)ncn2)cc1
i	CCSc1nnc(NC(=O)C2CCN(c3ccc(=O)n(C)n3)CC2)s1
i	COCCCn1cnc2c(-c3ccccc3)cn(CC(=O)Nc3ccc(OC)cc3)c2c1=O
i	Cc1cc(C(F)(F)F)nc(CCNC(=O)NCc2cccs2)n1
i	O=C(Cn1nc2c(c1NC(=O)c1cnccn1)CSC2)NCc1ccc(F)cc1
i	COc1ccc(/C=C2\Oc3c(ccc(OC)c3C)C2=O)cc1
i	Cc1nc(-c2nnn(-c3ccccc3)c2C)sc1C(=O)N1CCN(c2ccccc2)CC1
i	COc1ccc(/C=C/c2ccccc2F)cc1
i	Cc1nc2ccccc2n1CC1CCN(CC(=O)NCc2ccc3c(c2)OCO3)CC1
i	C/C(Cl)=C/Cn1c(SCC(=O)c2ccc([N+](=O)[O-])cc2)nc2c1c(=O)[nH]c(=O)n2C
i	COc1ccc(-c2nn(-c3ccccc3)cc2C2CC(c3ccco3)=NN2C(C)=O)cc1 (centres undefined)
i	COc1ccc(C(=O)N2CCN(c3ncnc4c3nnn4-c3ccccc3)CC2)c(OC)c1
i	Cc1cc(=O)n(CC(=O)NCCn2nc(-n3nc(C)cc3C)ccc2=O)cn1
i	COc1ccccc1C1(CNC(=O)c2sc(C)nc2C)CCOCC1
i	COc1ccccc1-c1cc(C(=O)N2CC(c3nc(C)no3)C2)[nH]n1
i	CCOCC(=O)NCC1CCN(S(=O)(=O)c2cccnc2)CC1

In a second layout: entries from further up
Compound	GIRK2 act
Cc1cc(=O)n(CC(=O)NCCn2nc(-n3nc(C)cc3C)ccc2=O)cn1	i
COc1ccccc1C1(CNC(=O)c2sc(C)nc2C)CCOCC1	i
COc1ccccc1-c1cc(C(=O)N2CC(c3nc(C)no3)C2)[nH]n1	i
CCOCC(=O)NCC1CCN(S(=O)(=O)c2cccnc2)CC1	i

(further entries)
GIRK2 act	compound
i	O=C(Nc1nc(C(=O)N2CCn3c2nc2ccccc23)co1)c1ccccc1
i	O=C(/C=C\c1ccc2c(c1)OCO2)NNC(=O)c1cccn(Cc2ccc(F)cc2)c1=O
i	Cc1ccc(NC(=O)Cn2nc3ccc(SC(C)C)nn3c2=O)c(Cl)c1
i	COc1ccc(C2(CNC(=O)/C=C/c3ccco3)CCOCC2)cc1
i	COc1ccc(NC(=O)CSc2nccn2-c2cccc(C(=O)NCc3cccs3)c2)cc1
i	COCCCn1c(=O)c2ccccc2n(Cc2nc(-c3ccccc3C)no2)c1=O
i	CN1CCc2c(sc(NC(=O)Cc3ccccc3)c2-c2nc3ccccc3s2)C1
i	Cc1cc(OCC(=O)N2CCN(c3ccc(-n4ccnc4)nn3)CC2)cc(C)c1Cl
i	O=C(NCc1ccccc1)C1CCCN(c2cnc3ccccc3n2)C1 (centres undefined)
i	CC(=O)c1ccc(NC(=O)COc2nc(C)nc3ccccc23)cc1
i	COCCN(Cc1ccoc1)S(C)(=O)=O
i	CCOc1ccc(-n2nnc(C(=O)Nc3ccc(-n4nncc4C)cc3)c2C)cc1
i	Cc1ccc(Nc2cc(C)n3c(=O)n(Cc4cc(=O)n5ccccc5n4)nc3n2)cc1F
i	COc1ncc(NC(=O)c2cc(Cl)ccc2OC)cn1
i	COc1cccc(CCNC(=O)Cc2cc(=O)[nH]c(SCc3ccc(F)cc3)n2)c1
i	O=C(Cn1nc2c3cc(-c4ccc(Cl)cc4)nn3ccn2c1=O)NC1CCCC1
i	COc1ccc(Cl)cc1NC(=O)c1nn(-c2cccc(F)c2)c(OC)cc1=O
i	COc1cc(NC(=O)Cn2cc(-c3nc(-c4ccc(C)cc4)no3)ccc2=O)cc(OC)c1
i	CC(CCc1ccccc1)NC(=O)C1CN(c2nc3ccc(F)cc3s2)C1 (centres undefined)
i	COc1cccc(NC(=O)Cn2ccn3nc(-c4ccc(C)cc4)cc3c2=O)c1
i	O=C(Nc1ccccc1C(F)(F)F)N1CCC(CSc2ccccn2)CC1
i	Cc1ccc(Cn2c(=O)c3ccc(C(=O)NCC(C)C)cc3n3c(=O)n(C)nc23)cc1
i	COCCNC(=O)NCC(OC)c1ccsc1 (centres undefined)
i	COC(=O)c1ccc(S(=O)(=O)Nc2ccc(CC(=O)NCC(F)(F)F)cc2)cc1
i	CC(C)(C)C(O)CCNC(=O)c1ccc(-c2ccccc2)cc1 (centres undefined)
+	Cc1csc(NC(=O)c2nnn(-c3ccccc3Cl)c2-c2ccccn2)n1
i	CC1CCN(C(=O)c2csc(Nc3ccc(OC(F)F)cc3)n2)CC1
i	Cc1onc(-c2ccccc2Cl)c1C(=O)N1CCC(Cn2cccn2)CC1
i	CCc1cccc(C)c1NC(=O)CSc1nnc(CCc2c(C)[nH]c(=O)[nH]c2=O)o1
i	O=C1CC(c2nc(-c3ccc(Br)cc3)no2)CN1c1ccc2c(c1)OCCO2 (centres undefined)
